Kir21 block – blocks the mouse Kir2.1 inward-rectifier potassium channel. P35561. HEK293-Kir2.1, FluxOR thallium flux fluorescence; stronger effect = lower value. B-score at 10 µM. 0.85% of 310,000 active. AID 1672;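 active means fluorescence ratio B-score at or below minus 3 SD of library scores, with starting-brightness B-score within 2 SD, cut at about -4.2 in these data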;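 further: channel flux triggered by added potassium and thallium sulfate stimulus; B-score of peak minus minimum fluorescence over baseline after thallium stimulus; more negative B-score means stronger Kir2.1 block with less thallium influx; some compounds called inactive have numbers as strong as hits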
Target sequence (P35561 whole entry, looked up): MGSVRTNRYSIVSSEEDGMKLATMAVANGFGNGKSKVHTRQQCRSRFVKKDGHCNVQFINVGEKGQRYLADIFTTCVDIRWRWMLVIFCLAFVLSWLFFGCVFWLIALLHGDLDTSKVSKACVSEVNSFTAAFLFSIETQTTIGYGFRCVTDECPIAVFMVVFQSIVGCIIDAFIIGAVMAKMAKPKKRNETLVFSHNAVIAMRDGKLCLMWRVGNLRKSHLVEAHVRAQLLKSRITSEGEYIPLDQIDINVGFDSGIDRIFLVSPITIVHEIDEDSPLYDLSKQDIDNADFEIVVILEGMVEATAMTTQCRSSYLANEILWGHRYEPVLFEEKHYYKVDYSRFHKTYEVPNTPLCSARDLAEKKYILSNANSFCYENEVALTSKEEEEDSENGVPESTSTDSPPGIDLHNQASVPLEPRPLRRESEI
* = called active by the depositor. This is a subset; most or all hits stand in other tables.

no.	Molecule	Kir21 block
1	Cc1ccc(-c2nnn(CC(=O)N(Cc3cccs3)C(C(=O)NC3CCCC3)c3ccncc3)n2)cc1 (stereo not given)	-0.03
2	CC(C)c1csc(CN2CCN(Cc3ccccc3)C(CCO)C2)n1 (stereo not given)	-0.02
3	Cc1cc(=O)oc2cc(OCC(=O)Nc3nnc(C4CC4)s3)ccc12	1.74
4	Cc1nnsc1C(=O)N/N=C/c1ccccc1Cl	-0.9
5	COc1ccc(C2=NN(C(=O)CN3CCOCC3)C(c3nc4ccccc4[nH]3)C2)cc1 (stereo not given)	-0.15
6	CCCCc1nc2cc(C(=O)N3CCNC(=O)C3)ccc2o1	-0.54
7	CCN1C(=O)c2ccccc2Sc2ccc(C(=O)NCCCN(CC(C)C)CC(C)C)cc21	-2.51
8	C=CCOc1ccc(C(=O)CC)cc1OC	-0.36
9	Cc1cc(C)n(CC(C)NCc2cn[nH]c2-c2ccc(C)c(C)c2)n1 (stereo not given)	-0.22
10	Cc1ccc(S(=O)(=O)NCC(=O)N(CC(=O)NC2CCCC2)CC2CCCO2)cc1 (stereo not given)	0.59
11	Cc1cccc(CS(=O)(=O)Cc2ccc(C(=O)NCCN3CCCCC3C)o2)c1 (stereo not given)	-0.02
12	CCNC(=O)NC(=O)C(C)OC(=O)c1oc2ccccc2c1CSC1CCCCC1 (stereo not given)	1
13	CC1CN(c2ccc([N+](=O)[O-])cn2)CC(C)O1 (stereo not given)	-0.04
14	O=C(NNS(=O)(=O)c1ccccc1[N+](=O)[O-])c1ccccc1[N+](=O)[O-]	-2.2
15	COc1ccc(NC2CCCN(C(=O)COc3ccc(C)cc3)C2)cc1 (stereo not given)	1.57
16	CC(C)CC1(C(=O)NCc2ccccn2)C=CCN1C(=O)c1ccccc1 (stereo not given)	-0.08
17	COc1ccc(OC)c(N(CC(=O)Nc2cccnc2)S(=O)(=O)c2ccc(C)cc2)c1	0.76
18	COCCn1nc2cc(C(=O)NCc3cc(C(F)(F)F)cc(C(F)(F)F)c3)ccc2c1OC	-0.58
19	O=C(Nc1ccc(OC(F)(F)F)cc1)c1cnc2n(c1=O)CCS2	0.72
20	O=C(Cn1cnc2c(oc3ccccc32)c1=O)N1CCCC1	1.27
21	Cc1ccccc1OC(=O)C1C(c2ccccc2)C(C(=O)O)C1c1ccccc1 (stereo not given)	0.53
22	CCN1C(=O)[C@H]2[C@@H](c3ccc(-c4ccc(Cl)c(Cl)c4)cc3)N3CCCC[C@@]3(C(=O)OC)[C@H]2C1=O	-0.72
23	O=C(Nc1ccccc1C(=O)O)c1ccc(NC(=O)C2CC2)cc1	-0.22
24	Cc1cc(C(=O)CSc2nc3ccccc3n2C)c(C)n1C	-0.77
25	CSc1cccc(NS(=O)(=O)c2ccc3c(c2)CCN3C(C)=O)c1	-0.91
26	O=C(CCc1c[nH]c2ccccc12)NCc1ccncc1	0.33
27	CCCCSC(=S)NC1CCS(=O)(=O)C1 (stereo not given)	-0.27
28	COc1cccc2cc(C(=O)NCc3ccc(C)cc3)c(=O)oc12	-0.5
29	COC(=O)c1ccccc1NC(=O)C(C)n1nc(C)c2c(C)n(-c3ccccc3)nc2c1=O (stereo not given)	-0.33
30	Cc1c(Cl)cccc1NC(=O)CSc1nnc(C)n1CC1CCCO1 (stereo not given)	-0.01
31	COc1cc(C(C)=O)ccc1OCC(O)CN(CCO)Cc1ccccc1 (stereo not given)	-0.88
32	CC(C)Oc1ccc(C(=O)N2CCCc3ccccc32)cc1	-0.1
33	O=C(COc1ccc(S(=O)(=O)Nc2ccc(Cl)cc2)cc1)N1CCOCC1	-0.03
34	O=c1c2cc(NC(=S)NC3CC3)ccc2nc2n1CCCCC2	-1.66
35	O=C(Nc1ccnn1C1CCN(C(=O)c2cnsn2)CC1)c1cccc(F)c1	0
36	O=C(Nc1nnc(SCc2ccccc2F)s1)C1=COCCO1	-1.86
37	Clc1ccc(Cn2cc(/C=N/n3cnnc3)c3ccccc32)cc1	-0.12
38	CCOc1ccc(Cc2nc(N)nc(N)n2)cc1	-0.14
39	COc1cccc(N2CCN(C(C)C(=O)NC34CC5CC(CC(C5)C3)C4)CC2)c1 (stereo not given)	-0.79
40	CC(=O)CSc1nc2ccccc2s1	0.93
41	CCNC(=O)NC(=O)CSc1nc2ccccc2n1CCOC	-0.4
42	Cc1ccc2[nH]c(-c3ccccc3)c(CN3CCOCC3)c(=O)c2c1	-0.5
43	CCc1ccccc1S(=O)(=O)Cc1ccc(C(=O)NC(C)C)o1	0.4
44	O=C(Nc1ccc(N2C(=O)C3C4C=CC(C4)C3C2=O)cc1Cl)c1cccs1 (stereo not given)	1.68
45	CC1CCN(S(=O)(=O)c2ccc(NC(=O)N3c4ccccc4Sc4ccccc43)cc2)CC1	0.33
46	Cn1cnnc1SC1CCCCC1NS(=O)(=O)c1ccc(Cl)cc1 (stereo not given)	0.08
47	CSc1nnc2c3cc(F)ccc3n(Cc3ccccc3)c2n1	-1.6
48	Cc1cccc(N(Cc2ccccc2)C(=O)Cc2ccc(S(=O)(=O)N3CCOCC3)s2)c1	2.14
49	O=S(=O)(Nc1nccs1)c1cnc(Cl)c(Br)c1	1.51
50	CS(=O)(=O)N(CC(=O)Nc1ccccc1C(=O)N1CCOCC1)c1cccc([N+](=O)[O-])c1	-0.4
51	CC(=O)Nc1cccc(-c2nc3ccccc3c(=O)o2)c1	-1.39
52	CCn1cc(C(=O)OCC(=O)c2cc(C)n(-c3ccccc3F)c2C)c(=O)c2ccc(C)nc21	0.02
53	Cc1ncc([N+](=O)[O-])n1CCO	-0.32
54	CC(=O)c1ccc(N2CCN(S(=O)(=O)c3cn(C)cn3)CC2)cc1	-0.4
55	COc1cc(CSc2ncn[nH]2)c(OC)cc1CSc1ncn[nH]1	1.78
56	Cc1c(N/C=C/C(=O)c2ccc(Cl)cc2)c(=O)n(-c2ccccc2)n1C	0.48
57	CC(C)Cc1cc(CNC(=O)C2CCC(=O)N(Cc3cccc(C(F)(F)F)c3)C2)on1 (stereo not given)	-0.04
58	Cc1noc(C)c1S(=O)(=O)N1CCC(C(=O)N2CCN(c3ccccc3Cl)CC2)CC1	-0.08
59	CSc1nc(-c2ccccc2)nn1C(=O)c1ccco1	1.91
60	COc1cccc(S(=O)(=O)Nc2ccc3c(c2)OCCO3)c1	-1.23

(cont.)
no.	Molecule	Kir21 block
61	N=c1oc2ccccc2cc1C(=O)N/N=C/c1ccccc1	-1.52
62	CC(C)(C)OC(=O)NCC12C=CC(O1)C1C(=O)N(Cc3ccccc3)C(=O)C12 (stereo not given)	0.82
63	CCN(Cc1ccncc1)Cc1nc(-c2ccc(C(=O)OC)cc2)no1	-0.88
64	Cc1ccc(CN(C(=O)c2ccco2)C(C(=O)NC2CCCC2)c2ccc(N3CCOCC3)cc2)cc1 (stereo not given)	-2.97
65	COc1ccccc1NC(=O)c1c([N+](=O)[O-])cnn1C	0.02
66	O=C(Cn1nc(-c2ccc(F)cc2)ccc1=O)Nc1ccc(C(=O)NC2CC2)cc1	1.3
67	Fc1ccccc1C1CCN(Cc2nc(CC3CC3)no2)C1 (stereo not given)	-0.01
68	CCc1ccc(C(=O)OCC(=O)NCC(F)(F)F)cc1	0.39
69	CC(C)(C)C(=O)Nc1c2c(nn1-c1cccc(Cl)c1)CS(=O)(=O)C2	0.43
70	c1cc2c(cc1Oc1nc(N3CCOCC3)nc(N3CCOCC3)n1)OCO2	1.84
71	CCSC1=NCCN1S(=O)(=O)c1ccc(F)cc1	2.11
72	Cc1ccc(-n2nccc2-c2nn(-c3cccc(C(F)(F)F)c3)c(=O)n(C)c2=O)cc1	0.45
73	CC(C)C[C@@H](CSc1ccc(Br)cc1)N1CCN(CC(C)C)CCC1=O	1.75
74	Cc1nn(CC(=O)NCc2ccc(C(=O)O)cc2)c(C)c1[N+](=O)[O-]	2.18
75	Cn1cnnc1SCC(=O)Nc1ccc(Br)cc1F	-0.55
76	CN1C(=O)NC(c2ccccc2)C2=C1CN(Cc1ccco1)C2=O (stereo not given)	0.18
77	CC1(C)CC(NC(=O)N2c3ccccc3Sc3ccccc32)CC(C)(C)N1	-0.64
78	c1ccc(CNn2nnnc2-c2ccccc2)cc1	1
79	N#Cc1c(N2CCCCC2)nc(N2CCCCC2)c2c1CCN(Cc1ccccc1)C2	-0.32
80	COc1ccc(S(=O)(=O)Nc2ccc(N(C)C(C)=O)cc2)cc1	-0.3
81	CCOc1ccc2c(c1)nc(SCC(=O)c1cccs1)n2C	0.67
82	COCCCn1c(SCC(=O)N2CCCC(C)C2)nnc1-c1ccco1 (stereo not given)	-1.44
83	CSc1cc(-c2ccccc2)n(C)c(=O)c1C#N	0.06
84	O=C1C(Cc2ccc(Br)cc2)SC(=Nc2ccccc2)N1c1ccccc1 (stereo not given)	0.14
85	CCCCC(=O)N1CC2(C)CN(C(=O)CCCC)CC(C)(C1)C2=O	-0.1
86	COC(=O)c1ccccc1NC(=O)C1CCN(C(=O)c2cc(OC)cc(OC)c2)CC1	-0.19
87	N#Cc1c(N)sc(=S)c2c1CCCC2	-0.51
88	CCc1ccc(N2C(=O)c3ccc4c5c(ccc(c35)C2=O)CC4)cc1	-1.24
89	CC(=O)c1ccc(O)c(CSc2nncn2C)c1	0.08
90	CC(O)c1nc2ccccc2n1C/C=C/c1ccccc1 (stereo not given)	0.44
91	COc1ccccc1/C=C/C(=O)NCC(=O)N1CCC(N(C)C2CCCC2)CC1	-0.11
92	CCc1cc2c(=O)c(-c3ccc4c(c3)OCCO4)coc2cc1OC(=O)c1ccco1	-1.69
93	CC(CNS(=O)(=O)c1ccccc1)Sc1ncccn1 (stereo not given)	-0.14
94	Cc1cc(NC(=O)C(=O)NCc2cccc(Cl)c2)no1	0.13
95	CCS(=O)(=O)c1ccc(O)c(N2C(=O)C3C4C=CC(C4)C3C2=O)c1 (stereo not given)	-0.43
96	Cc1noc(C)c1C(=O)Nc1nc(-c2ccccc2Cl)cs1	1.24
97	CCOC(=O)CNC(=O)C1CCCc2c1[nH]c1ccc(Cl)cc21 (stereo not given)	0.68
98	O=C(/C=C/c1ccco1)NCc1ccc(F)cc1	0.04
99	CCc1ccccc1NC(=O)c1cccc(Oc2ccc([N+](=O)[O-])cc2Cl)c1	-0.72
100	O=C(NC1CCCC1)C(c1ccc(Cl)cc1)N1CCOCC1 (stereo not given)	0.39
101	NC(=S)Nc1ccc2cn[nH]c2c1	-0.68
102	O=C(O)CCCC(=O)Nc1ccc(Sc2ccc([N+](=O)[O-])cc2)cc1	-1.54
103	Cc1cccc(-n2ncc3c(N4CCCC4)ncnc32)c1	-0.43
104	CCSc1nc2c(c(=O)[nH]1)C(c1ccncc1)C(C(=O)OC(C)C)=C(C)N2 (stereo not given)	0
105	O=C(CCN1CCOCC1)Nc1c(-c2ccccc2)c2cc(Br)ccc2[nH]c1=O	1.39
106	O=C(O)C1CCN(S(=O)(=O)c2cccs2)CC1	-0.22
107	O=C(Nc1nc2ccccc2s1)Nc1ccc([N+](=O)[O-])cc1Cl	-1.49
108	C[C@H]1CCC[C@@]2(O[C@H](CCO)C[C@@H](O)[C@@H]2O)O1	1.04
109	O=C(NNS(=O)(=O)c1ccccc1[N+](=O)[O-])c1cccc(Br)c1	1.01
110	C/C(=N\NC(=O)c1c(C)nc2ccccn12)c1ccccc1F	1.29
111	O=C(O)c1ccccc1CSc1nc2ccccc2s1	1.24
112	O=[N+]([O-])c1cccc(-c2nc(NCc3ccccc3)c3ccccc3n2)c1	0.08
113	OCC1(Cc2cccc(F)c2)CCN(Cc2cccc3nccnc23)CC1	-0.03
114	CC(C)(C)C(=O)N1CCC(O)(CS(=O)(=O)Cc2ccc(Cl)cc2)CC1	2.02
115	COC1CCCCC1Nc1cc(C)cc(C)c1 (stereo not given)	-0.35
116	COc1ccc(-c2cc3nc(-c4ccccc4)cc(N4CCC(O)CC4)n3n2)cc1	-0.73
117	COc1ccc(CCNC(=O)c2nn(C)cc2Cl)cc1	0.97
118	COCCNc1nnc(SCC(=O)NNC(=O)c2ccccc2)s1	0.9
119	COc1ccc(NC(=O)CSC2CC(=O)N(c3ccc4c(c3)OCCO4)C2=O)cc1 (stereo not given)	-0.52
120	O=c1cc(CN2CCN(Cc3ccccc3)CC2)c2cc(O)ccc2o1	-3.03

Another view of 3 compounds above:
99: CCc1ccccc1NC(=O)c1cccc(Oc2ccc([N+](=O)[O-])cc2Cl)c1
  Kir21 block = -0.72
119: COc1ccc(NC(=O)CSC2CC(=O)N(c3ccc4c(c3)OCCO4)C2=O)cc1 (stereo not given)
  Kir21 block = -0.52
96: Cc1noc(C)c1C(=O)Nc1nc(-c2ccccc2Cl)cs1
  Kir21 block = 1.24

(listing goes on)
no.	Molecule	Kir21 block
121	C/C(=N\NC(=O)C1CCCC1)c1ccc(C(C)C)cc1	0.08
122	CCOCCCNC(=O)c1ccc(OC)cc1	0.52
123	COc1ccccc1/C=C/C(=O)NCC(=O)N/N=C(/C)c1ccc(Cl)cc1	0.06
124	O=C(NCc1ccc2c(c1)OCO2)c1cccc2c1C(=O)N(C1CCCCC1)C2	-0.18
125	Cc1ccc(SC(C)C(=O)NC2CC2)cc1 (stereo not given)	-0.74
126	COc1ccc(C(C)=O)cc1CSCCC(=O)O	-1.08
127	Cc1c(C(=O)N2CCOCC2)c(S(=O)(=O)Nc2ccccc2)c(C)n1C	0.51

Shown field by field: 4 of the compounds above
123	COc1ccccc1/C=C/C(=O)NCC(=O)N/N=C(/C)c1ccc(Cl)cc1
  Kir21 block: 0.06

124	O=C(NCc1ccc2c(c1)OCO2)c1cccc2c1C(=O)N(C1CCCCC1)C2
  Kir21 block: -0.18

125	Cc1ccc(SC(C)C(=O)NC2CC2)cc1 (stereo not given)
  Kir21 block: -0.74

126	COc1ccc(C(C)=O)cc1CSCCC(=O)O
  Kir21 block: -1.08
